# Compound activity as filed in PubChem.
# HSV replic up – enhancers of HSV replication in host cells, fold increase, host cell viability. actives 0.005% (n = 220,000). HSV replication augmentation in cells. AID 1956, 2009. maximum fold increase;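 active = peak rise of 1.5-fold or more in the series; tested in PC3 cells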;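 note: first round at 10 µM; read as green reporter fluorescence; hits show the peak of a series up to 25 µM; 1 = signal of infected wells without compound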
# GALR2 ag – GALR2 receptor agonists, primary screen, cell-based. Galanin receptor type 2 (Homo sapiens), O43603. AID 803, 2007. actives 0.48% (n = 140,000). activation, %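 (tested at 5 µM)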. GALR2-expressing cells, agonist activation read-out;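 active = above mean plus 3 SD of all compounds, about 5% in these data, not always enough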;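 note: 0% = vehicle buffer wells and 100% = reference agonist at full effect; tested in CHO reporter cells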
# RGS16-Gao – modulators of RGS16 binding to Galphao, primary screen, biochemical, human proteins, multiplexed bead flow cytometry; Regulator of G-protein signaling 16 (Homo sapiens) + Guanine nucleotide-binding protein …; bead-based flow cytometry RGS16-Galphao binding, fluorescence; actives lie on both sides; binding response (% of control), % at 10 µM; actives 0.38% (n = 220,000); AID 1441, 2008;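 active = below 25% or above 175%, edge rows of some plates excepted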;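 note: Galphao activated by GDP with aluminum fluoride before binding; 100% = wells without compound and 0% = beads without RGS; some results beyond the cut were filed as inactive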
# INS promoter inh – inhibitors of insulin promoter-driven GFP, primary screen, imaging, TRM-6 cells (human fetal islet line), eGFP reporter, cell count | inhibition, % at 2 µM | reporter expression induced with tamoxifen | actives 0.9% (n = 130,000);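 active = inhibition above the mean plus 3 SD, with well images judged a real hit on visual review, cut at about 60% in these data, passing the limit was not always enough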
# PKD1 inh – inhibitors of human PKD1 kinase, biochemical, fluorescence polarization | Serine/threonine-protein kinase D1 (Homo sapiens), Q15139 | PKD1 kinase fluorescence polarization assay | inhibition, %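 (about 10 µM by stock and volumes)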 | actives 0.056% (n = 200,000);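 active = inhibition of 50% or more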;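 note: controls were vehicle for no effect and a reference inhibitor for full effect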
# Target sequence (Q15139 whole entry, looked up): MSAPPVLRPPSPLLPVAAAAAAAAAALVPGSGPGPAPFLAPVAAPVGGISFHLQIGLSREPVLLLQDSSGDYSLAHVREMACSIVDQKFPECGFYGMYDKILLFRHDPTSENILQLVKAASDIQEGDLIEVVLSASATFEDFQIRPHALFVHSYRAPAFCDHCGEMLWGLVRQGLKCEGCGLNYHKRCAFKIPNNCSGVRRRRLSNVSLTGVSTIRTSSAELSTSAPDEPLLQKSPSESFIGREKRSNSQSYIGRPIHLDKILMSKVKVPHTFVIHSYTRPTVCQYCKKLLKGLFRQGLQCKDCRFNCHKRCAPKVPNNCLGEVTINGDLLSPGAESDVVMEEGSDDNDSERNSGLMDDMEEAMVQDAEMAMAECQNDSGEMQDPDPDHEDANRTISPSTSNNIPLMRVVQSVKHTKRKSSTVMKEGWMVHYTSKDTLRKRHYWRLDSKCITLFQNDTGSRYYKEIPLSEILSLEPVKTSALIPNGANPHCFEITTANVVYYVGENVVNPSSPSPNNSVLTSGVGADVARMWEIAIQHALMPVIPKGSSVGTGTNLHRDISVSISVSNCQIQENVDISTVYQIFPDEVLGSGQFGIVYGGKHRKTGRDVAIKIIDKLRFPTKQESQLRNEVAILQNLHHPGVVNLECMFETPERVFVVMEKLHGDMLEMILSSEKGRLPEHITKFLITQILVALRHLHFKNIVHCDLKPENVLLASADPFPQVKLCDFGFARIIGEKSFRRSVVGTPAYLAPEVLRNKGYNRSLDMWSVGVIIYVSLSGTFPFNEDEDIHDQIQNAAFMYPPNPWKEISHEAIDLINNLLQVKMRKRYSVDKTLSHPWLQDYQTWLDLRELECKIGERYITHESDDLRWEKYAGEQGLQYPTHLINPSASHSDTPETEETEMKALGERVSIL
# INS promoter inh cell count – also measured in INS promoter inh; calls as there; normalized cell count, %; measured here: cell count, toxicity; reference of the scale not given here;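 cells exposed to compound for 48 h; stained nuclei by imaging scaled within each plate; lower means fewer cells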
# HSV replic up primary fold – second read-out of HSV replic up, no call of its own (marks repeat the call); fold increase; compound at 10 µM; measured here: primary screen fold increase 10 uM; tested in PC3 cells;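 GFP signal in the first replicate; 1 = infected wells without compound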
# * = called active by the depositor; i = inactive; . = not tested or not shown. This is a random part of the collection; about 1.3% have a hit in one of these screens.
SMILES,HSV replic up,HSV replic up primary fold,GALR2 ag,RGS16-Gao,INS promoter inh,INS promoter inh cell count,PKD1 inh
COCCNC(=O)CSc1nc(N)c(NC(=O)c2ccccc2F)c(=O)[nH]1,i,1,-1.9,37,-12,87,3
NC(=O)c1ccccc1NC(=O)COc1ccc(Cl)cc1,i,0.99,.,108,.,.,.
CCOc1ccccc1N1CN(C2CCCCC2)CNC1=S,i,0.94,.,103,.,.,.
O=C(O)/C=C/C(=O)NCc1ccccc1,i,0.91,0.1,99,-3,172,-1
Cc1c(-c2ccccc2Cl)nc2ccccc2c1C(=O)O,i,1,.,98,.,.,.
O=C1N(S(=O)(=O)c2ccccc2F)C(=O)C2(CCCC2)N1S(=O)(=O)c1ccccc1F,i,0.84,0.1,97,.,.,-6
COc1ccc(OC)c(-c2csc(NC(=O)Cc3cccs3)n2)c1,i,0.76,.,105,33,114,-1
COC(=O)c1c(C(=O)OC)c2ccncn2c1Cl,i,0.94,0.4,84,29,91,3
O=C(Oc1cccnc1)c1ccccc1[N+](=O)[O-],.,.,-1.3,116,.,.,7
O=C(O)c1ccccc1OCc1ccccc1Br,i,1.2,.,97,6,41,-5
Cc1cccc(NC(=O)COc2cccc3c2CCN(Cc2ccccc2)C3=O)c1C,i,1.1,-0.5,101,.,.,3
Cc1ncc([N+](=O)[O-])n1CC(=O)Nc1ccccc1,i,1,.,108,-11,79,-5
Cn1cc([N+](=O)[O-])c(C(=O)NCc2ccco2)n1,i,0.92,.,103,8,112,9
COc1cccc(/C=N/n2c(=S)n(C)c3ccccc32)c1OC,i,0.78,-0.1,91,21,112,1
Cn1c(Cn2nnc3ccccc32)nnc1SCC(=O)N1c2ccccc2CCc2ccccc21,i,1.1,-1.8,101,.,.,-9
C=CCn1c(COc2ccccc2F)nnc1SCC(=O)c1c[nH]c2ccccc12,i,1.1,-0.1,92,.,.,15
CCOc1ccc(NC(=O)c2cn(CC(C)C)c(=O)c3c2c2ccccc2n3C)cc1,i,1.1,2.0,73,-20,89,-9
Cc1cccc(NC(=O)C2CCCN2S(=O)(=O)c2cccc3cccnc23)c1 (stereo unspecified),i,0.93,-1.2,103,.,.,-11
O=C(C1=C[C@H](c2ccccc2)C[C@H](OCc2ccc(CO)cc2)O1)N1CCCCCCC1,.,.,.,104,.,.,8
Cc1cccc(-c2nc3cc([N+](=O)[O-])ccc3o2)c1,i,1.1,.,99,.,.,-2
CC(C)(C)C(=O)CN1C2=NCCN2c2ccccc21,i,0.99,.,104,.,.,-4
Cn1c(NC(=O)c2ccc(C(C)(C)C)cc2)cc(=O)n(C)c1=O,i,0.86,-0.8,99,43,114,6
Cc1cc2cc(CNC(=O)COc3ccccc3)ccc2n1C,i,1.5,.,96,.,.,.
C=CCOc1cccc(C(=O)N2CCCC(CCC(=O)NCc3ccccc3F)C2)c1 (stereo unspecified),i,0.98,.,100,.,.,-4
Fc1ccc(-n2nnc(-c3cccnc3Cl)n2)cc1,i,1.1,.,90,.,.,3
CN(C[C@H](Cc1ccccc1)N(C[C@H](Cc1ccccc1)N(CCc1cc(C(F)(F)F)cc(C(F)(F)F)c1)N=O)N=O)N=O,i,1,.,102,.,.,-1
COc1ccc(C2C=C(c3ccccc3)Nc3nc(NC(C)=O)nn32)cc1 (stereo unspecified),i,0.99,-2.2,99,-14,122,-4
CC(NC(=O)/C(=C\c1ccco1)NC(=O)c1ccccc1Br)C(=O)O (stereo unspecified),i,1,.,98,.,.,1
CCOC(=O)c1c(NC(=O)OC)sc(C(=O)N(C)C)c1C,i,0.85,-0.2,100,36,69,-6
O=S(=O)(/N=C(/Nc1ccccn1)c1ccccc1)c1ccccc1,i,1.1,-3.9,102,-196,106,-11
Cc1ccc(-n2cc(C(=O)c3cc(Cl)ccc3O)cc(C#N)c2=O)cc1,i,1.2,0.2,99,-129,90,-5
O=C1C(C=NCCCn2ccnc2)=C(O)c2ccccc21,i,0.91,1.2,.,8,126,6
CC1CCCCN1CC(=O)Nc1cc(S(=O)(=O)N2CCOCC2)ccc1N1CCCC1 (stereo unspecified),i,0.84,.,110,.,.,1
COC(=O)c1[nH]c2ccc(C)cc2c1NC(=O)Nc1ccccc1OC,i,0.94,-1.1,120,0,101,-1
CC(C)(C)NC(=O)Cn1nc(C(F)(F)F)c2c1CCCC2,i,1,.,99,.,.,-8
NNC(=O)CCN(Cc1ccco1)S(=O)(=O)c1ccc(Cl)cc1,i,1.1,.,102,.,.,.

# An excerpt from above in order of length of the SMILES, low to high:
SMILES,HSV replic up,HSV replic up primary fold,GALR2 ag,RGS16-Gao,INS promoter inh,INS promoter inh cell count,PKD1 inh
O=C1C(C=NCCCn2ccnc2)=C(O)c2ccccc21,i,0.91,1.2,.,8,126,6
COc1ccc(C2C=C(c3ccccc3)Nc3nc(NC(C)=O)nn32)cc1 (stereo unspecified),i,0.99,-2.2,99,-14,122,-4
CC1CCCCN1CC(=O)Nc1cc(S(=O)(=O)N2CCOCC2)ccc1N1CCCC1 (stereo unspecified),i,0.84,.,110,.,.,1

# Continued:
SMILES,HSV replic up,HSV replic up primary fold,GALR2 ag,RGS16-Gao,INS promoter inh,INS promoter inh cell count,PKD1 inh
CCN(CC)CCN(C(=O)Cn1nnc(-c2ccc(C)o2)n1)C(C(=O)NC(C)(C)C)c1cccs1 (stereo unspecified),i,0.95,.,104,-22,143,-10
Oc1c(C(c2cccs2)N2CCN(c3ccccc3)CC2)ccc2cccnc12 (stereo unspecified),.,.,-3.4,98,10,34,-7
COCCCNC(=O)CSc1nc2ccccc2c(=O)n1Cc1ccc2c(c1)OCO2,i,0.87,.,111,-27,182,-2
O=C(CCCn1c(=O)c2ccccc2n(CC(=O)NCc2ccco2)c1=O)NCc1ccco1,i,1,0.4,103,-47,123,-6
CCO[C@H]1OC(C(N)=O)=C[C@@H](c2coc3ccccc3c2=O)[C@@H]1CCCO,i,0.9,.,101,.,.,-6
C/C(=N\NC(N)=S)C1(C)CC2(CC(C)(C)OC2=O)C(=O)O1 (stereo unspecified),i,1.2,.,100,.,.,.
CC(=O)N1CCN(S(=O)(=O)c2ccc(C)cc2)C1c1ccc(N(C)C)cc1 (stereo unspecified),i,1.1,-2.4,102,.,.,-3
Cn1c(N2CCN(C(=O)Nc3ccc(C(F)(F)F)cc3)CC2)nc2ccccc21,i,0.88,-1.5,103,33,53,3
Cc1ccccc1-n1c(SCC(=O)NCc2cccs2)nc2ccccc2c1=O,i,0.89,-1.4,103,.,.,4
O=C(O)C1CC(=O)n2c(nc3ccccc32)S1 (stereo unspecified),i,0.91,-3.0,141,-37,136,4
CCCCn1c(=S)[nH]c2ccc(N3CCOCC3)cc2c1=O,i,0.79,.,108,67,160,-4
O=C(Cn1nnc(-c2ccc(F)cc2)n1)N1CCCCC1,i,0.97,.,108,40,82,-7
Cc1ccccc1CS(=O)(=O)CCC(=O)NCCCN1CCN(c2ccccc2F)CC1,i,0.96,-0.9,99,-62,77,7
O=C(Nc1cc2cccc([N+](=O)[O-])c2oc1=O)c1cccs1,i,0.91,.,94,.,.,2
O=C(/C=C/c1ccccc1[N+](=O)[O-])c1ccc(F)cc1,i,0.78,.,106,.,.,3
O=C(NCc1ccco1)c1cc([N+](=O)[O-])ccc1N1CCOCC1,i,0.94,.,104,.,.,-2
O=C(NCC1CCCO1)C(C(=O)c1ccccc1)n1cc(Cl)ccc1=O (stereo unspecified),i,0.98,-2.0,94,.,.,-38
COc1cc2cc(CN(CCN3CCOCC3)C(=O)Nc3ccc(F)cc3)c(=O)[nH]c2cc1OC,i,0.94,.,101,.,.,0
COc1ccccc1NC(=O)N(Cc1ccc2c(c1)OCO2)Cc1nc2ccccc2c(=O)[nH]1,i,0.93,-2.1,82,-8,128,5
CC(C)c1ccc(N2CC(C(=O)Nc3nccs3)CC2=O)cc1 (stereo unspecified),i,0.94,-0.8,105,14,33,2
COc1cccc(Nc2nc3cc(OC)ccc3cc2C#N)c1,i,0.78,.,97,.,.,5
Fc1ccc(NC(=S)N2CCN(c3cccc(C(F)(F)F)c3)CC2)cc1,i,0.9,-1.2,112,-6,47,19
CC(C)CC(=O)N(Cc1ccc(F)cc1)C1CCS(=O)(=O)C1 (stereo unspecified),i,1.1,.,102,18,73,-9
CCC(C)NC(=O)/C=C1\Sc2ccccc2NC1=O (stereo unspecified),i,0.99,-1.5,102,-19,112,-5
CCn1c(SCC(=O)Nc2ccc(C(=O)OC)cc2)nnc1-c1cccs1,i,1,-0.9,10,27,126,-5
CCOc1cc(C)c(C(C)C)cc1S(=O)(=O)NCc1ccccn1,i,0.85,-1.8,129,38,134,-5
CCOC(=O)Nc1ccc(OC)cc1S(=O)(=O)N1CCCCC1,i,0.99,0.0,97,-6,42,1
Cc1[nH]c2ccccc2c1C(c1ccncc1)N1CCN(c2ccc(F)cc2)CC1 (stereo unspecified),i,0.8,1.1,95,-24,88,-2
COc1ccc(Br)cc1CNc1ccc2[nH]c(=O)[nH]c2c1,i,1,.,94,10,53,-5
COc1ccc(CCNC(=O)CCc2ccc(S(=O)(=O)NCC(C)C)cc2)cc1OC,i,1.1,.,96,.,.,8
CC1(C)Cc2c(sc(/N=C/N3CCCCCC3)c2C#N)C(C)(C)N1,i,0.91,.,94,.,.,0
CN(c1ccccc1)c1nc(N)c([N+](=O)[O-])c(NCc2ccco2)n1,i,0.66,1.1,108,.,.,-1
CS(=O)(=O)N1N=C(c2ccco2)CC1c1cccc([N+](=O)[O-])c1 (stereo unspecified),i,1.2,.,102,.,.,.
O=C(CSc1nc2ccccc2[nH]1)c1cccs1,i,0.6,-1.2,99,.,.,-2
Cc1noc(C)c1S(=O)(=O)N1CCCC(C(=O)c2cccc(OC(C)C)c2)C1 (stereo unspecified),i,1,.,103,.,.,-3
Cc1nc(SCC(=O)NC(C)(C)C)c2c(-c3cccs3)csc2n1,i,1,-0.3,95,-4,104,2

# Record cards (already shown).
# Cc1ccc(-n2cc(C(=O)c3cc(Cl)ccc3O)cc(C#N)c2=O)cc1 reads HSV replic up = i; HSV replic up primary fold = 1.2; GALR2 ag = 0.2; RGS16-Gao = 99; INS promoter inh = -129; INS promoter inh cell count = 90; PKD1 inh = -5
# O=C(C1=C[C@H](c2ccccc2)C[C@H](OCc2ccc(CO)cc2)O1)N1CCCCCCC1 reads HSV replic up = .; HSV replic up primary fold = .; GALR2 ag = .; RGS16-Gao = 104; INS promoter inh = .; INS promoter inh cell count = .; PKD1 inh = 8

# Other results follow:
SMILES,HSV replic up,HSV replic up primary fold,GALR2 ag,RGS16-Gao,INS promoter inh,INS promoter inh cell count,PKD1 inh
CCn1cc(CNC(=O)c2cc(COc3ccc(F)cc3Cl)on2)cn1,i,0.9,.,87,.,.,-6
CC(=O)CCS(=O)(=O)c1ccc(Oc2ccc(S(=O)(=O)CCC(C)=O)cc2)cc1,i,0.84,-4.4,100,56,143,-4
CC(C)C(=O)Nc1ccc(C(=O)NNC(=O)NC2CCCCC2)cc1,i,0.88,-1.6,103,.,.,-6
O=C(CN1CCCCCC1)Nc1ccc(F)c(F)c1F,i,1,-0.4,94,.,.,-5
Cc1ccccc1NC1(C#N)C(=O)Nc2ccccc21 (stereo unspecified),.,.,-2.8,96,9,99,-3
Cc1ccc(S(=O)(=O)N2CCN(Cc3cc(C(C)C)ccc3O)CC2)cc1,i,0.87,-1.3,111,.,.,-3
FC(F)(F)c1cccc(CN2CCCCCC2)c1,i,0.89,-0.7,112,25,113,-6
O=C(CCC(=O)N1CCN(S(=O)(=O)c2cccc(F)c2)CC1)c1cccs1,i,0.9,.,101,.,.,-4
COc1ccc(C(=O)Nc2sc3c(c2C(=O)NCc2ccco2)CCCC3)cc1OC,i,0.89,-1.5,100,43,90,-3
Fc1ccccc1N1CCN(C(c2ccncc2)c2nnnn2C2CCCC2)CC1 (stereo unspecified),i,1.4,-0.7,97,-19,62,5
Cc1ccnc(SCC(=O)N2CCC(C(N)=O)CC2)n1,i,0.9,-0.7,106,.,.,-11
COc1cc(NC(=O)CN(C)Cc2cccc(F)c2)c(C)cc1[N+](=O)[O-],i,0.81,.,108,-45,203,-1
CC1CCN(C(=O)CSCC(=O)O)CC1,i,1.1,.,113,42,101,-4
FC(F)(F)c1ccc(/C=N/N2CCN(Cc3cccc4ccccc34)CC2)cc1,i,0.85,-1.2,106,-4,116,0
O=C(COc1ccc(S(=O)(=O)NC2CCCCC2)cc1Cl)NCc1cccnc1,i,0.95,-1.4,137,-141,111,-2
N#Cc1c(OCC(=O)c2ccccc2)nc2c(c1-c1ccco1)CCc1ccccc1-2,i,1,-0.1,100,25,147,-12
